Screens (PubChem BioAssay)
GIV-Gai inh: inhibitors of GIV peptide binding to Galpha-i3, primary screen, biochemical, fluorescence polarization, FITC-GIV GBA peptide, rat Galphai3. 90 min; hits give low values; scaled: aluminum fluoride 0%, vehicle 100%. percent of control (FP), % (no concentration beside the values). hit rate 0.42% among 210,000. AID 1224905, 2016;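 active means replicate mean at 85% of control or lower, very high polarization wells dropped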;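 further: wells of about 15 µL received 100 nL stock; the first replicate is given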
Target sequence (P08753 whole entry, looked up): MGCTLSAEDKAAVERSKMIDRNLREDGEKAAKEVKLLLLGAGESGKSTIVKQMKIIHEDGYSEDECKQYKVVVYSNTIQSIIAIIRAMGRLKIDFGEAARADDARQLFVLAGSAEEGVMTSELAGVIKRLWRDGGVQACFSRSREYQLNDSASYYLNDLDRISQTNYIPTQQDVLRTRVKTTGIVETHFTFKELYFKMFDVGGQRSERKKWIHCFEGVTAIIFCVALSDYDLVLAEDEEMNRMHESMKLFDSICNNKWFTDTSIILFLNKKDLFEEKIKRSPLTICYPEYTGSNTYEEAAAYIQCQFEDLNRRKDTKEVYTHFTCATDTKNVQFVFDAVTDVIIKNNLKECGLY
HCMV UL50-53 inh: inhibitors of HCMV UL50-UL53 interaction, biochemical, HTRF | HCMV UL50-UL53 nuclear egress complex (human cytomegalovirus) | normalized percent inhibition | inhibition, % (concentration not given with the values) | hit rate 0.15% among 190,000 | AID 1918969, 2023;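 active means both replicates at 50% or more, plus weaker picks with an unusually low signal ratio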;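 further: stock transfer was 100 nL into about 20 µL; 0% = negative control wells and 100% = wells with untagged competitor protein; inactives centre near -12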
Sa growth 42C: S. aureus growth inhibition at 42 and 30 °C, primary screen, LtaS inhibitor project, RN4220, two temperatures. OD600, 20 h, 42 °C; hits give low values. hit rate 0.53% among 170,000. relative growth, % (test concentration not listed);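 active means growth at 42 °C up to 50% and 20 or more points under that at 30 °C, or under 10% at both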;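 further: 300 nL library stock went into each well; scaled to the means of positive and negative controls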
Sa growth 42C second temp: recorded beside Sa growth 42C, whose call it bears; relative growth, %; measured here: growth at 30 °C;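 optical density after 20 h as mean of two plates; 100% = untreated growth and lower means inhibition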
Active calls of the source: *; . = not tested or not shown; & = joins results of further samples. No enrichment for hits; about 0.8% have a hit in one of these screens.

Every second line gives: GIV-Gai inh, HCMV UL50-53 inh, Sa growth 42C, Sa growth 42C second temp
- O=C(NC1CCCC1)c1ccc(CN2C(=O)CCn3nc(-c4ccc(Cl)cc4)cc32)cc1
→ 102.2, -9.5, ., .
- N#Cc1ccc(CN2CCc3ccccc3C2)cc1
→ 104.1, -11.6, 95.7, 94.3
- NNC(=O)c1nc(-c2ccccc2)cc(-c2ccccc2)n1
→ 120.3, -1.7, 69.3, 45.9
- CC(C)N1CCn2c(nc3cc(NC(=O)C4CCCCC4)ccc32)C1
→ 101.2, -12.5, ., .
- N#C/C(=C\c1ccc(N2CCOCC2)o1)C(=O)NCC1CCCO1 (configuration not stated)
→ 300.8, -104.7, 117.9, 94.6
- O=S(=O)(c1ccc(Br)s1)N1CCCC1c1ccc2c(c1)OCCCO2 (configuration not stated)
→ ., -19.6, 71.5, 89.8
- Cc1cc(=O)n(Cc2cccc(Cl)c2)c2c1c(C)nn2C
→ 98.9, ., 74.8, 89.7
- COc1ccc(NC(=O)CN2CCN(S(=O)(=O)/C=C/c3ccccc3)CC2)cc1
→ ., -17.5, 83.7, 92.4
- CCN(Cc1ccc(OC)cc1)c1ccc(-c2nc(-c3ccncc3)no2)cc1[N+](=O)[O-]
→ 98.6, -24.3, 92.7, 91.2
- CC(=O)Nc1ccc(SC2CCOC2=O)cc1 (configuration not stated)
→ ., -20.5, 85.9, 89.7
- O=C(Oc1cccc2cccnc12)c1ccc(NS(=O)(=O)c2cccc3cccnc23)cc1
→ 105.0, -16.0, ., .
- Cc1nc2nc(C)c(Cc3ccccc3C)c(=O)n2[nH]1
→ 93.0, -20.4, ., .
- COc1cccc(OCCOc2ccc([N+](=O)[O-])cc2/C=c2\sc3nc4ccccc4n3c2=O)c1
→ 110.1, -20.5, ., .
- COc1ccc(CNC(=O)c2ccc(OC)cc2OC)cc1
→ ., -1.9, 85.7, 95.5
- COc1ccc(CCNC(=O)c2cnc3sc4c(n3c2=O)CCCC4)cc1
→ 102.4, -20.2, ., .
- COc1ccc(C(=O)NCc2ccc3c(c2)CCN3C(=O)c2ccc(Cl)cc2)c(OC)c1
→ 102.0, ., 119.2, 86.6
- Cc1cccc(-n2c(SCC(N)=O)nc3ccccc3c2=O)c1
→ 95.7, -0.8, 108.1, 103.5
- COc1ccccc1N1CCN(CCN(C(=O)C2CCCCC2)c2ccccn2)CC1
→ 97.3, 4.1&-10.5, ., .
- O=C(NCCc1ccc(F)cc1)C(=O)NCC(c1ccc2c(c1)OCO2)N1CCOCC1 (configuration not stated)
→ 94.5, ., 80.0, 93.7
- CC1(C)OC(CO)C(CO)O1 (configuration not stated)
→ 100.2, -6.1, 105.5, 82.1
- O=C(Nc1ccccc1)N(Cc1cccs1)c1ccc(F)cc1
→ 101.4, -9.3, 113.6, 96.5
- Cc1ccc(C)c(N2CCN(C(=O)c3cccc(-n4c(C)nc5cccnc54)c3)CC2)c1
→ 104.7, ., 106.7, 79.4
- Cc1c(C#N)c(NC(=O)CN2CCCCC2C)n(Cc2ccco2)c1C (configuration not stated)
→ ., -25.0, 90.5, 95.4
- Cc1ccc(C(C)C)c(OCC(=O)Nc2nonc2NC(=O)COc2cc(C)ccc2C(C)C)c1
→ 106.9, 6.5, 88.6, 83.8
- N#CCc1ccc(NC2(C#N)CCCCC2)cc1
→ 102.8, -26.0, 85.7, 82.9
- Cc1sc2ncnc(Nc3ccc(F)c(Cl)c3)c2c1S(=O)(=O)N1CCCCC1
→ 104.7, -17.8, ., .
- Cc1cc(O)c(C=Nc2ccc(F)cc2)c(=O)o1
→ ., -25.7, 99.2, 89.4
- CCN(CC)c1ccc(NC(=O)c2sc3nc4c(cc3c2N)CN(C)CC4)cc1
→ 104.7, -12.6, 102.2, 104.5
- COCCN1C(=O)c2oc3ccccc3c2OCC1(C)C(=O)NCc1ccccc1OC (configuration not stated)
→ 104.7, -25.9, ., .
- Cc1ccnc(NC2c3ccccc3C(=O)N2Cc2ccccc2)c1 (configuration not stated)
→ 104.8, -27.9, 101.2, 90.6

Entries of single compounds as entered above.
Shown for `CC1(C)OC(CO)C(CO)O1` (configuration not stated) : GIV-Gai inh: 100.2; HCMV UL50-53 inh: -6.1; Sa growth 42C: 105.5; Sa growth 42C second temp: 82.1
Shown for `Cc1c(C#N)c(NC(=O)CN2CCCCC2C)n(Cc2ccco2)c1C` (configuration not stated) : GIV-Gai inh: .; HCMV UL50-53 inh: -25.0; Sa growth 42C: 90.5; Sa growth 42C second temp: 95.4
Shown for `Cc1cccc(-n2c(SCC(N)=O)nc3ccccc3c2=O)c1` : GIV-Gai inh: 95.7; HCMV UL50-53 inh: -0.8; Sa growth 42C: 108.1; Sa growth 42C second temp: 103.5

Later entries
Every second line gives: GIV-Gai inh, HCMV UL50-53 inh, Sa growth 42C, Sa growth 42C second temp
- Cc1ccc(C)c(CSc2c(C(C)C)cnc3c2c(=O)n(C)c(=O)n3C)c1
→ 109.0, ., 98.3, 99.8
- FC(F)(F)c1cc2[nH]c(=S)[nH]c2cc1Cl
→ 109.1, -2.1, 90.6, 54.9
- CCOc1ccc(CCNC(=O)c2cc3c(=O)n(C)c4ccccc4c3n2C)cc1OCC
→ 106.3, -14.2, 89.9, 102.7
- O=C(NCCO)c1ccc2nc(-c3ccco3)c(-c3ccco3)nc2c1
→ 101.0, -38.1, 99.4, 70.5
- Cc1ccc(S(=O)(=O)c2nc(-c3ccccc3Br)oc2N(C)C)cc1
→ 99.9, ., 99.8, 82.1
- CN(C)c1ccc(/C=C2/Sc3ccccc3C2=O)cc1
→ ., -24.6, 116.2, 86.8
- O=C(NC1CCCCC1)N1CCC(n2c(C(F)(F)F)nc3cccnc32)CC1
→ 96.0, -7.9, ., .
- COc1cc2c(=O)n(Cc3ccc(C(=O)NC4CCCC4)cc3)c(=O)n(CC(N)=O)c2cc1OC
→ 104.2, -32.1, ., .
- CCOC(=O)c1ccc(N=C2SC(C(=O)O)CC(=O)N2Cc2cccs2)cc1 (configuration not stated)
→ 100.8, ., 93.7, 69.5
- c1ccc(-c2noc(CNC3CCCCC3)n2)cc1
→ 101.3, ., 83.5, 86.3
- Cc1oc2ncnc(N3CCCCC3)c2c1C(=O)Nc1cccc(F)c1
→ 105.1, ., 115.3, 103.5
- CCNC(=O)N1CCCC(c2cccc(C(=O)NCCCN3CCCCC3)c2)C1 (configuration not stated)
→ 103.7, -14.8, ., .
- Cc1cc(Nc2ccccc2)nc2cc(O)ccc12
→ 104.9, -9.4, 93.8, 70.4
- Cc1ccc(OCc2nc(C#N)c(NCCCN(C)C)o2)cc1
→ 104.1, -29.5, 87.8, 89.3
- O=C(CC1SC(=O)NC1=O)Nc1cccc(NC(=O)CC2SC(=O)NC2=O)c1 (configuration not stated)
→ 76.2*, -31.1, 93.3, 68.3
- Cc1ccc2c(CC(=O)Nc3c(C(=O)c4ccc(F)cc4)oc4ccccc34)coc2c1C
→ 111.3, 12.1, 100.5, 91.3
- CN(C)c1ccc(C(CNC(=O)c2ccc(C(C)(C)C)cc2)N2CCCC2)cc1 (configuration not stated)
→ 101.9, ., 88.4, 90.0
- O=C(COC(=O)C12CCC(=O)N1c1ccccc1S2)c1c[nH]c2ccccc12 (configuration not stated)
→ ., -13.6, 87.5, 94.5
- N#Cc1nc2[nH]c(-c3ccccc3)cc(=O)n2c1C#N
→ ., -24.2, 86.9, 86.2
- CCc1c(O)nc(SCC(=O)NC(C)(C)C)n(-c2ccc(F)cc2)c1=O
→ ., 6.9, 98.7, 108.2
- CC(C)CNC(=O)C(C)c1ccc(CC(C)C)cc1 (configuration not stated)
→ 102.8, -16.4, 105.1, 100.9
- CSc1nn(CC(=O)Nc2ccccc2F)c(N)c1S(=O)(=O)c1ccccc1
→ 96.7, ., 84.0, 85.4
- CNC(=S)NCc1ccc2[nH]c3c(c2c1)CCCC3
→ 100.4, ., 95.0, 89.3
- Cc1cc(SCC(=O)N(C)C2CCS(=O)(=O)C2)nc2ccccc12 (configuration not stated)
→ ., -12.2, 95.0, 95.7
- Cc1noc2ncnc(N3CCCC(C(=O)N4CCN(c5ccccc5F)CC4)C3)c12 (configuration not stated)
→ 102.2, -24.5, 107.2, 93.5
- Cc1nc2ccc(NC(=O)c3ccccc3Cl)cc2o1
→ 109.5, -1.8, 81.3, 86.8
- NC(=O)Cc1nnc(-c2ccccc2)c(-c2ccccc2)n1
→ 102.0, -107.5, 97.6, 95.6
- COc1cccc(NC(=O)N2CCC(CN3CCOCC3)CC2)c1
→ 102.8, ., 108.8, 100.1
- O=S(=O)(c1ccc(OC(F)(F)F)cc1)N1CCN(Cc2nnc(-c3ccco3)o2)CC1
→ ., -40.5, 84.0, 85.9
- O=C(NCc1ccccc1)c1cc(C2CC2)[nH]n1
→ 101.4, -12.2, 98.9, 79.1
- COC(=O)c1cc(S(=O)(=O)NC2CC2)c(C)n1C
→ 103.6, -7.2, ., .
- O=C(NC1CC2CCCC(C1)N2Cc1ccccc1)C1CC1 (configuration not stated)
→ 97.6, -14.9, 101.6, 93.2
- COc1ccccc1CNc1nc2c(S(=O)(=O)c3ccc(C)c(C)c3)nnn2c2ccc(Cl)cc12
→ 100.4, -30.9, 102.2, 87.5
- CC(=O)NC1C2CN3CCN(C2)CC1(Cc1ccccc1)C3 (configuration not stated)
→ 96.0, -8.3, 90.8, 70.0
- CCc1ccc(N2C(=O)CC(Sc3ccccn3)C2=O)cc1 (configuration not stated)
→ 100.5, ., 34.7, 14.4
- CCOC(=O)c1cc2c(ccc3ccccc32)o1
→ 108.2, -20.3, 93.2, 81.6
- NC(=O)c1ccsc1NC(=O)COc1ccccc1
→ 113.5, -4.2, 118.1, 96.3
- CCCNC(=O)N1Cc2c(sc3c2CCCC3)-n2cccc2C1C(C)C (configuration not stated)
→ 109.0, -23.0, ., .
- O=C(O)C1CCCN1S(=O)(=O)c1cccc2nsnc12 (configuration not stated)
→ 101.9, -83.5, ., .
- N#C/C(=C/c1cc(Br)c(Br)o1)c1ccccc1
→ ., -23.1, 80.9, 82.9
- Cc1nc(NC2=NCN(Cc3cccnc3)CN2)nc2c(C)cccc12
→ 103.2, -6.1, ., .
- CCn1c2ccccc2c2nnc(SCC(=O)c3cc(C)n(-c4ccc5c(c4)OCCO5)c3C)nc21
→ ., -12.8, 83.5, 90.4
- Cc1ccccc1Nc1c(-c2ccc(N3CCOCC3)cc2)nc2ccccn12
→ 103.6&100.7, -10.1&-12.6, 96.7, 86.0
- N#CC(C#N)=Cc1ccc(OC(=O)c2cccs2)cc1
→ ., 1.5, 92.4, 98.5
- CN(C)C=C=C(O)c1ccccc1C(=O)c1ccc(Cl)cc1
→ 102.0, -6.8, 88.2, 89.0
- CCN(CC)c1nc(N)nc(Nc2ccc3cc(-c4ccccc4)c(=O)oc3c2)n1
→ 100.4, -5.1, 121.7, 97.9
- CCc1ccccc1NC(=O)c1sc(-n2nc(C)c(Cc3ccccc3)c2C)nc1C
→ 100.8, 4.0, 108.1, 85.5
- COc1cc2c(=O)n(CC3CCCO3)c(=O)n(CC(=O)c3cccc(Br)c3)c2cc1OC (configuration not stated)
→ 104.0, -17.3, 107.5, 85.3
- O=C(c1nc(-c2ccc(Cl)cc2)n2c1CCCCC2)N1CCc2ccccc21
→ 100.9, ., 82.4, 86.9
- O=C(N1CCCC1)N1c2ccccc2C=Cc2ccccc21
→ 97.0, 3.4, 84.5, 116.8
- COC(=O)c1cc2sccc2n1C(C)C(=O)Nc1ccccc1OC (configuration not stated)
→ 102.5, ., 129.3, 78.0
- O=C(c1ccc2c(c1)N(Cc1ccc(Cl)cc1)C(=O)c1ccccc1S2(=O)=O)N1CCN(c2ccccn2)CC1
→ 101.9, -29.0, 94.8, 83.8
- CCO/C=N/c1c(C#N)c2c(c(=S)n1C)COC(C)(C)C2
→ 100.8, -20.0, 105.3, 94.3
- N#Cc1ccccc1/C=C/C(=O)N(CCO)CC(O)c1ccccc1 (configuration not stated)
→ 100.1, -39.5, 111.7, 109.6
- CC(C)NC(=O)C(C)n1ncn2cccc2c1=O (configuration not stated)
→ 103.1, ., 100.2, 96.7
- CCn1c(SCc2ccccc2)nc2sc3c(c2c1=O)CC(C)(C)OC3
→ 100.9, 7.9, ., .
- COc1ccccc1NC(=O)c1ccc(N)cc1
→ ., -12.8, 104.5, 85.8
- O=C1N=C(N2CCN(C(=O)c3cc4ccccc4oc3=O)CC2)S/C1=C\c1cccs1
→ ., -17.5, 97.3, 86.2
